# Screening data: PubChem, National Center for Advancing Translational Sciences (NCATS)
# SARS PLP yeast: inhibitors of SARS-CoV papain-like protease in yeast | S. cerevisiae expressing SARS-CoV PLpro, growth rescue; control for the full effect not named in the record | AID 485353 | 330,000 compounds, 0.19% hits | Potency, µM (doses to about 32.9 µM), inactives show top-dose activity, positive = growth rescue; active means well fitted rising curve with a large enough effect; inconclusive means small, poorly fitted or top-dose-only effect; inactive means no such curve, though single readings can be large or run the other way; note: 0% is about no effect; nearly all actives have a fitted effect of over 55% in size; growth read by luminescence after 48 h
# RE007 growth inh: less growth of the S. pombe RE007 Vpr strain. S. pombe RE007 Vpr strain, BacTiter-Glo ATP luminescence, 24 h; control for the full effect not named in the record. Potency, µM (titrated, usually from 92.2 µM), for the others: at the highest dose activity change, negative = less growth. 360,000 compounds, 0.21% hits; active = well fitted falling curve with a large enough effect; inconclusive = small, poorly fitted or top-dose-only effect; inactive = no such curve, though single readings can be large or run the other way;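 note: % is set by controls: 0 for no effect and ±100 for the full control effect; nearly all actives have a fitted effect of over 50% in size; the assay follows cell death caused by Vpr and the record does not say whether a fall means rescue or toxicity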
#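 Fission yeast RE007 carrying one integrated HIV-1 vpr copy, seeded at OD 0.01 in PMG+AL medium with 23 nL pinned compound. Grown 24 h at 30 degrees; viability read by BacTiter-Glo luminescence after 5 min.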
# StopGo reporter: lowers the luciferase signal of an FMDV 2A StopGo reporter; human cells with a luciferase reporter of 2A StopGo recoding; control for the full effect not named in the record; Potency, µM (top dose mostly 57.9 µM), for inactives: top-dose signal change, negative = less light; AID 1159524; 410,000 compounds, 1.2% hits; active = well fitted falling curve with a large enough effect; inconclusive = small, poorly fitted or top-dose-only effect; inactive = no such curve, though single readings can be large or run the other way; tested in HEK293T cells; note: % is set by controls: 0 for no effect and ±100 for the full control effect; nearly all actives have a fitted effect of over 45% in size; luciferase light after 4 h
# Active calls of the source: *; ? = inconclusive; & = joins results of further samples; [ ] = remark or other dose. Potency is the fitted concentration of half-maximal effect.
SMILES,SARS PLP yeast,RE007 growth inh,StopGo reporter
O=C1CC(c2cccc([N+](=O)[O-])c2)c2cc3c(cc2N1)CCC3 (stereo not drawn),-4.8%,3.3%,?
Cc1cccc(OCC(=O)NCC(C)(C)N2CCOCC2)c1,-6.2%,16.5%,-3.7%
CCc1ccccc1NC(=O)CN1CCN(C(=O)COc2ccccc2C#N)CC1,2.3%,1.3%,-25.8%
Cc1cc(=O)c2c([nH]1)c(C)cc1[nH]c(C)c(C)c12,-3.7%[6.58 µM],-11.5%,-20.8%
CC1CC(C)CN(C(=O)CN2C(=O)NC(c3ccccc3)(c3ccccc3)C2=O)C1 (stereo not drawn),10.7%,4.9%,-23.9%
CC(C)Cc1nnc(NC(=O)CCNC(=O)c2ccccc2Cl)s1,1.7%,-13.6%,-14.6%
Cc1ccc(C(=O)COC(=O)CCS(=O)(=O)c2ccccc2)cc1[N+](=O)[O-],-6.1%,1.0%,-12.2%
COc1cc(/C=C/C(=O)N(C)CC(=O)Nc2ccccc2Br)cc2c1OCCO2,-3.7%,-9.1%,-20.5%
COc1ccc(C(=O)COC(=O)c2ccc([N+](=O)[O-])s2)cc1OC,0.6%,-19.7%,-14.8%
CCN(CC(=O)NCc1ccc(F)cc1)S(=O)(=O)c1ccc(Cl)s1,-5.0%,-6.0%,-13.3%
Nc1ccc(Br)cc1-c1nc2ccccc2[nH]c1=O,0.7%,-2.3%,41.8%[activator]
COc1cc(OC)cc(-c2cc3ncccc3cn2)c1,-1.6%,-23.1%,0.6%
COC(=O)c1ccccc1NC(=O)NCc1ccccc1,-0.7%,1.7%,13.5%
O=C(Cn1ccc(C(F)(F)F)n1)N=Nc1c(O)[nH]c2ccc(Br)cc12,-2.4%,-1.6%,-7.5%
C#CCOCCOCCOCCNc1nc(N2CCN(C(=O)CCCCCCCCCCNC(=O)[C@@H](CCSC)n3cc(CCO)nn3)CC2)nc(N2CCN(C(=O)CCCCCCCCCCNC(=O)[C@@H]([C@H](C)O)n3cc(C)nn3)CC2)n1,9.2%,-14.8%,-23.6%
CC(OC(=O)c1ccc(Cl)c([N+](=O)[O-])c1)C(=O)N1CCN(Cc2ccccc2)CC1 (stereo not drawn),0.6%,-9.5%,-23.9%
COc1ccc(-c2cn(CCC(=O)O)c(-c3ccc(Cl)nc3)n2)cc1,?,2.5%,-3.9%
O=C(C(=O)N1CCN(c2cccc(Cl)c2)CC1)c1c[nH]c2ccccc12,-13.7%,17.7%,11.8%
CC1(C2CC2)NC(=O)N(CC(=O)Nc2ccc(C(F)(F)F)cc2)C1=O (stereo not drawn),-3.5%,4.8%,-16.0%
COCCn1c(C)cc(C(=O)COC(=O)c2ccccc2Br)c1C,-4.6%,-25.3%,35.5µM*
COc1ccc(-c2noc(C(=O)NCc3ccccc3Cl)n2)cc1OC,-1.5%,-2.0%,64.7%[activator]
COc1ccc(-c2ccc3c(c2)c(C#Cc2ccsc2)c(-c2cc(OC)cc(OC)c2)n3C)cc1,6.0%,4.9%,-4.4%
CC(C)C[C@@H](C)C(=O)N(Cc1ccccc1)c1ccccc1,1.5%,-4.3%,?
Cc1cc(C(=O)OCC(=O)NCc2ccc(F)cc2)c2ccccc2n1,-3.3%,1.2%,-20.8%
Cc1nnc(SC(C)C(=O)Nc2ccc3ccccc3c2)n1C (stereo not drawn),-17.9%,14.7%,-14.0%

# The results go on:
SMILES,SARS PLP yeast,RE007 growth inh,StopGo reporter
Cc1c(Cl)cccc1NC(=S)N(Cc1ccco1)C(C)c1ccccn1 (stereo not drawn),7.3%,-17.3%,-15.1%
CC(NC(=O)CN(C)CC(=O)Nc1ccc(Cl)cc1)c1ccc(F)cc1 (stereo not drawn),0.4%,12.7%,0.0%
COc1ccccc1N1CC(C(=O)NCCN2C(=O)S/C(=C\c3cccnc3)C2=O)CC1=O (stereo not drawn),-2.3%,22.6%,0.9%
COc1ccc(CCNC(=O)C2CCN(C(=O)c3cccs3)CC2)cc1,3.4%,17.3%,-8.7%
C#CC[N+](C)(C)CC#Cc1ccc(C)cc1,-3.1%,-12.4%,-19.8%
CCCCn1nc(C(=O)Nc2cc(C(F)(F)F)ccc2N2CCOCC2)ccc1=O,0.7%,3.8%,-28.0%
CC1CCCCC1NC(=O)COC(=O)Cc1ccc(Cl)cc1 (stereo not drawn),-11.2%,-5.4%,-21.0%
O=C(COC(=O)c1ccc[nH]c1=O)Nc1ccc(N2CCCCC2)cc1,-0.4%,1.0%,2.51µM*
CC(=O)c1ccc(-c2ccc(C(=O)Nc3nc(-c4ccccn4)cs3)o2)cc1,1.2%,3.7%,-3.7%
C[C@H](CO)N1C[C@H](C)[C@@H](CN(C)C)Oc2c(NC(=O)c3ccncc3)cccc2C1=O,9.2%,-4.5%,25.7%
O=C(COc1ccc2ccc(=O)oc2c1)Nc1ccc(N2CCCCC2)cc1,6.0%,-7.6%,-8.8%
COc1ccc(-c2nnc(SC(C)C(=O)NC3CC3)o2)cc1 (stereo not drawn),-4.6%,6.7%,-2.1%
NS(=O)(=O)c1cccc(NC(=O)CSc2nnc3n2CCCCC3)c1,-2.7%,-11.0%,-6.3%
CCN(CC)C(=O)[C@H]1C[C@H](CC(=O)NC(C)(C)C)C(=O)N2CCc3c([nH]c4cc(CCC(=O)N(C)C)ccc34)[C@]12C,5.6%,3.8%,-14.2%
COc1ccc(C2=CC(=O)C[C@H](c3ccc(OC)c(OC)c3)C2)cn1,-5.0%,9.2%,-14.7%
Cc1noc(C)c1S(=O)(=O)N1CCCN(C(=O)/C=C/c2ccccc2F)CC1,-2.3%,1.7%,0.5%
CCOC(=O)c1ccc(-n2c(CN3CCN(CCO)CC3)nc3ccc([N+](=O)[O-])cc3c2=O)cc1,-0.4%,8.1%,-12.0%
CCS(=O)(=O)Nc1ccc(C2=NN(C(=O)c3ccco3)C(c3cccc(F)c3)C2)cc1 (stereo not drawn),0.3%,7.6%,-4.4%
O=C(O)c1ccc2c(c1)C(=O)/C(=C\c1ccco1)C2=O,0.1%,-4.6%,-16.7%
Fc1ccc(/C=N/Nc2nc3ccccc3[nH]2)cc1F,-6.8%,-10.5%,29.1%
O=C(C[C@@H]1C/C=C\C[C@@H](Cc2ccc(F)cc2)C(=O)OC[C@@H]2CCCN2C1=O)NCCO,-8.9%,-17.1%,-25.2%
CC[C@]1(C(=O)OC)[C@H]2C(=O)N(C)C(=O)[C@H]2[C@H]2CN(C)C(=NCc3ccccc3)N21,-0.9%,-8.0%,0.0%
COC(=O)[C@]1(Cc2ccccc2)N[C@H](CN(C)S(=O)(=O)c2ccc(F)cc2)[C@@H]2C(=O)N(C)C(=O)[C@@H]21,1.7%,6.1%,-5.8%
CCOc1ccccc1NC(=O)C(NC(=O)C1CCC(C)CC1)C(C)C (stereo not drawn),0.7%,2.2%,2.3%
COc1ccc(C(=O)Nc2cc(S(=O)(=O)N3CCCCC3)ccc2OC)cc1,-8.2%,3.8%,-1.6%

# Remaining list, next part
SMILES,SARS PLP yeast,RE007 growth inh,StopGo reporter
O=C1C(Cc2ccccc2)Nc2ncnc(N3CCOCC3)c2N1Cc1ccc(Cl)cc1 (stereo not drawn),-4.3%,-0.1%&92.0%,-16.1%&-22.7%
Cc1ccc(N2C(=O)C(F)(F)C2c2ccccc2)cc1 (stereo not drawn),3.4%,-4.5%,7.1%
CC(C)Cn1c(N)c(C(=O)COC(=O)c2cc(F)cc(F)c2)c(=O)n(C)c1=O,0.9%,3.6%,-21.7%
C=C(C(=O)Oc1c(C(C)(C)C)cccc1C(C)(C)C)c1ccccc1,-30.2%,-10.9%,?
Cc1noc(C)c1COc1ccc(C(=O)N2CC(C)CC(C)C2)cc1 (stereo not drawn),3.3%,4.2%,?
CC(C)C[C@@H](CO)N(Cc1ccccc1)S(=O)(=O)N(Cc1ccccc1)[C@@H](CO)CC(C)C,1.5%,0.5%,?
O=C(NC1CCCCC1)c1cccc2c1C(=O)c1ccc(N3CCC(Cc4ccccc4)CC3)cc1S2(=O)=O,-5.5%,2.7%,-22.5%
CSC1=NCCN1S(=O)(=O)c1ccc(C)cc1,0.2%,-5.8%,-8.3%
CCOC(=O)NN1C(=O)c2ccccc2NC1(C)C,6.0%,6.7%,-19.9%
COc1ccc(CCC(=O)Nc2ccc(S(=O)(=O)Nc3ncccn3)cc2)cc1,-5.3%,16.3%,-7.0%
CCN1C(=O)[C@H]2[C@@H](c3ccc(SC4CCCCC4)cc3)N3CCCC[C@@]3(C(=O)OC)[C@H]2C1=O,-0.7%,19.5%,-24.2%
Cc1ccccc1S(=O)(=O)Cc1ccc(C(=O)NCc2ccc(F)cc2)o1,-3.2%,6.9%,-12.5%
COc1ccc(SC[C@H](C)CN2CC[C@H](NC(=O)OCc3ccccc3)CCC2=O)cc1,4.1%,-6.7%,?
CCN(CC(=O)Nc1cccc(S(=O)(=O)N(C)c2ccccc2)c1)Cc1ccccc1,4.1%,-13.7%,?
CCCN(C(=O)c1ccc(S(=O)(=O)N2CCCC2)cc1)C1CCS(=O)(=O)C1 (stereo not drawn),2.0%,-7.1%,-17.0%
COc1ccccc1NS(=O)(=O)c1ccc(C)c(C(=O)NC2=NCCS2)c1,-29.2%,-10.6%,-5.8%
COc1ccc(-[n+]2c(-c3ccccc3)cc(-c3ccccc3)cc2-c2ccccc2)cc1,9.5%,-20.3%,3.16µM*
CCC/C(C#CCCN1C(=O)c2ccccc2C1=O)=C1/c2ccccc2C(=O)N1c1ccccc1,-0.7%,-18.1%,?
Cc1ccc(C)c(S(=O)(=O)N2CCN(C(=O)CCC(=O)NCc3ccc(Cl)cc3)CC2)c1,3.4%,22.2%,-7.7%
O=S1OC(c2ccccc2)c2cc(Cl)ccc21 (stereo not drawn),-1.4%,-12.9%,-12.7%
O=C(COC(=O)c1ccc(S(=O)(=O)N2CCCC2)cc1)Nc1cccc(F)c1,-0.4%,3.6%,-28.7%
COc1ccc(CC(=O)OCC(=O)NC(=O)NC2CCCC2)cc1,5.1%,-16.0%,-16.8%
O=C(CN1CCN(S(=O)(=O)c2ccccc2F)CC1)NCC1(N2CCOCC2)CCCCC1,-1.0%,-7.8%,-14.5%
Cc1ccc(C(=O)NC2CC3CCC(C2)N3)cc1 (stereo not drawn),-4.0%,-5.2%,7.5%
CCC(CO)Oc1cc(NCc2ccccc2Cl)c2ncn(C(C)C)c2c1 (stereo not drawn),2.0%,1.4%,5.7%

# Later entries.
SMILES,SARS PLP yeast,RE007 growth inh,StopGo reporter
O=C(O)c1cc2c(cc1NC(=O)C1CCCC1)OCCO2,0.0%,2.2%,-2.4%
CCN1C(N(C)C)=NC[C@@H]1Cc1ccccc1,-1.4%,6.4%,-5.7%
COc1ccc(S(=O)(=O)N2CCN(C(=O)CCOc3ccccc3)CC2)cc1OC,0.8%,-1.8%,-17.4%
CC(Oc1ccccc1)C(=O)N1CCN(c2ncccn2)CC1 (stereo not drawn),-15.0%,1.8%,-5.7%
CCCn1c(N)c(C(=O)CSc2nc3ncc(Cl)cc3[nH]2)c(=O)n(C)c1=O,3.4%,-0.6%,?
O=C(NN=C1CCCCCCCCCCC1)c1cccnc1,3.1%,19.3%,-8.8%
Cc1c(NC(=O)COC(=O)Cn2cc(C(F)(F)F)ccc2=O)cccc1[N+](=O)[O-],7.9%,-6.1%,-9.8%
NC(=O)c1ccc(NC(=O)COC(=O)C2(c3cccc(F)c3)CCCC2)cc1,0.3%,-12.1%,?
C[C@H](CO)N1C[C@H](C)[C@@H](CN(C)S(=O)(=O)c2ccccc2)Oc2c(NC(=O)Nc3ccccc3)cccc2C1=O,-4.5%,11.0%,1.3%
COc1ccc(CN2C[C@H]3CCCN3c3cc(Br)ccc3S2(=O)=O)cc1,-0.4%,10.5%,-27.3%
COc1ccc(C(=O)c2c3ccc([N+](=O)[O-])cc3[n+]([O-])n2CCCN)cc1,5.2%,-18.8%,-7.5%
O=C(COC(=O)CNC(=O)c1ccco1)Nc1ncc(Cl)cc1Cl,-4.7%,19.9%,-1.7%

# Some values from the results shown.
# Reading of `Cc1c(NC(=O)COC(=O)Cn2cc(C(F)(F)F)ccc2=O)cccc1[N+](=O)[O-]` in RE007 growth inh: -6.1%
# Reading of `C[C@H](CO)N1C[C@H](C)[C@@H](CN(C)S(=O)(=O)c2ccccc2)Oc2c(NC(=O)Nc3ccccc3)cccc2C1=O` in RE007 growth inh: 11.0%

# Entries of single compounds as entered above:
# COc1ccc(-c2ccc3c(c2)c(C#Cc2ccsc2)c(-c2cc(OC)cc(OC)c2)n3C)cc1 as listed: SARS PLP yeast: 6.0%; RE007 growth inh: 4.9%; StopGo reporter: -4.4%
# CCCn1c(N)c(C(=O)CSc2nc3ncc(Cl)cc3[nH]2)c(=O)n(C)c1=O as listed: SARS PLP yeast: 3.4%; RE007 growth inh: -0.6%; StopGo reporter: ?

# Not all compounds are listed, so the mix of outcomes need not match the whole.
